# Assay outcomes from PubChem BioAssay.
# Vif A3G – HIV-1 Vif–A3G interaction blockers – biochemical, TR-FRET, GST-Vif 1-94, biotin-A3G peptide, dose response retest, primary screen (AID 1117319); TR-FRET GST-Vif / biotin-A3G peptide binding; higher % means a stronger effect; test concentration not given here; strong numbers were not always called active; inhibition, %, or IC50 in µM where a hit was titrated; 260,000 tested, 0.57% active;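 active means above the screen mean plus three standard deviations and confirmed in dose response; inconclusive means results disagree or hit not tested in dose response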;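 further: Vif residues 1-94 fused to GST binding biotinylated APOBEC3G peptide 110-148; 0% = full assay without inhibitor and 100% = GST in place of GST-Vif; retest series ran down from 100 µM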
# Calb FLC – C. albicans growth modulation with fluconazole. C. albicans CaCi-2 (fluconazole-resistant clinical isolate) + fluconazole, Alamar Blue growth, 48 h. 300,000 tested, 0.57% active. growth inhibition, % (no concentration beside the values). AID 1979;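 active means most replicates above 75%; inconclusive means exactly half above 75%; inactive means most below 75%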;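 further: all wells also contain fluconazole at 8 µg/ml as a sub-toxic cotreatment; 0% = median of DMSO wells and 100% = median of geldanamycin control wells; wells of about 8 µL received 7.5 nL stock; the first replicate is given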
# Beta cell apopt – blocks beta cell apoptosis; AID 435005; INS-1E cytokine-induced death, ATP luminescence, 48 h; percent of positive-control rescue, neutral wells zero; 300,000 tested, 0.8% active; protection from apoptosis, % (concentration not given with the values);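 active means all replicates at 75% or more, or half of them and the mean; inconclusive means half reach 75% but not the mean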;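 further: 0% = cytokine-treated negative control wells and 100% = positive control rescue; higher means more ATP so stronger rescue from cytokine killing; wells of about 40 µL received 100 nL stock; the first replicate is given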
# MLL AF4-AF9 inh – MLL-AF4/AF9 protein interaction inhibition | inhibition, % at 10 µM | AID 651704 | AlphaScreen, biotin-AF4 peptide binding to FLAG-AF9 | 350,000 tested, 0.47% active;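 active means every replicate reaching a set inhibition limit, whatever the replicate mean, cut at about 25% in these data; inconclusive means mean inhibition reaches that limit but some replicates miss it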;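 further: 0% = plate neutral control median and 100% = total signal loss; the record names both 10 and 1 µM as test concentration; the first replicate is given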
# Target sequence (P42568 whole entry, looked up): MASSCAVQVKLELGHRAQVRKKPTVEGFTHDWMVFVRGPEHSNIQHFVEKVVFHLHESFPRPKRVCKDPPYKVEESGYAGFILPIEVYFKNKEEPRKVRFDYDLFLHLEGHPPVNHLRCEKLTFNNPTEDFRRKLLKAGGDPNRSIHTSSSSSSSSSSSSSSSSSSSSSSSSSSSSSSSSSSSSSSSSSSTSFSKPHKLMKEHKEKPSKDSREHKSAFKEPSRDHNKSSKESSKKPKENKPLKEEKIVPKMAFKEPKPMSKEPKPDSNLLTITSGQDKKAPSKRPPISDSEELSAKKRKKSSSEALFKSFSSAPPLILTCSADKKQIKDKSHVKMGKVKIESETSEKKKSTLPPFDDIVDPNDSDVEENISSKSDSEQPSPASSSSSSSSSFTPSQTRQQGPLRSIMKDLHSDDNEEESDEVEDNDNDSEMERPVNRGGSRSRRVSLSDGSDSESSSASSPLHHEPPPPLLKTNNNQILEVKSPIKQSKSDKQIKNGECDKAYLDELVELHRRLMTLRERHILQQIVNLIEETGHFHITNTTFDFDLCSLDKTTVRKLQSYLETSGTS
# LANA-H2B inh – blocks KSHV LANA binding to histone H2A/H2B | Q9QR71 | cell-free LANA-H2A/H2B peptide, fluorescence polarization | inhibition, % (no concentration beside the values) | 320,000 tested, 0.6% active; in the data active means inhibition mostly above about 10%, no sharp cut-off; inactive means mostly below about 6.7%;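 further: stock transfer was 7.5 nL into about 10 µL; 0% = median of vehicle wells and 100% = median of positive control wells; one replicate is shown; the record names a cut of 25% in any replicate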
# T cruzi inh – blocks replication of Trypanosoma cruzi; T. cruzi beta-gal in NIH3T3, luminescence, 90 h; inhibition, % (no concentration beside the values); 300,000 tested, 1.4% active; AID 1885;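 active means mean inhibition across valid replicates above about 55%, limit read from the data; inconclusive means mean below that limit but half or more replicates reach it; inactive means mean below it, under half of replicates reach it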;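 further: signal also drops with host cell toxicity which is not excluded here; 0% = plate median of DMSO wells and 100% = zero luminescence signal; higher percent means less beta-gal luminescence so fewer parasites; stock transfer was 50 nL into about 50 µL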
# A1 inh – inhibitors of the anti-apoptotic protein A1, read as caspase activation; MEF A1-2A-BIM cells, Caspase-Glo 3/7 luminescence, 3 h; percent of clofoctol response, vehicle zero; caspase activation, % (concentration not given with the values); 330,000 tested, 0.066% active;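 active means over half of replicate activation scores above 10%, or exactly half above 10 with the replicate mean above 10; inconclusive means replicate mean below 10 yet half the replicates above 10; inactive means over half of replicates below 10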;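 further: wells of about 30 µL received 50 nL stock; many hits fall short of the cut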
# RanGTP-Imp inh – inhibitors of RanGTP-importin-beta interaction, primary screen, biochemical, FRET, CFP-Ran, YFP-importin-beta, homogeneous; cell-free CFP-Ran/YFP-importin-beta FRET ratio; inhibition, % (no concentration beside the values); 300,000 tested, 1.1% active;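 active means most replicates above 15%; inconclusive means exactly half above 15%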;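 further: 0% = DMSO wells and 100% = Ran loaded with GDP instead of GTP; wells of about 40 µL received 100 nL stock; the first replicate is given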
# * = called active by the depositor; ? = inconclusive; nt = no result given; & = joins results of further samples.
no.	SMILES	Vif A3G	Calb FLC	Beta cell apopt	MLL AF4-AF9 inh
1	Cc1cccc(CNC(=O)Cn2ccc3cc(S(=O)(=O)N4CCCCCC4)ccc32)c1	nt	-27.7	-1.3	0.9
2	Cc1oc2c(C)c3oc(=O)c(CCC(=O)N4C[C@H]5C[C@@H](C4)c4cccc(=O)n4C5)c(C)c3cc2c1C	nt	3.2	3.2	8.6
3	O=C(CCc1nc(-c2ccccc2)no1)NCc1ccco1	19.0%	-10.8	-7.0	nt
4	CCOc1ccc(-c2cc(C(=O)N3CCC(C)CC3)c3ccccc3n2)cc1	nt	9.1	-4.5	-0.3
5	COc1ccc(N(C(=O)COc2ccc(F)cc2)S(=O)(=O)c2ccc(C)cc2)cc1	nt	-1.1	-0.6	nt
6	O=C(NCCN1CCc2ccccc2C1)C1CCN(S(=O)(=O)N2CCCCC2)CC1	25.5%	-11.3	-0.5	6.8
7	CCOCCCNC(=O)C1CCN(C(=O)Nc2ccc(Cl)cc2)CC1	16.5%	-7.2	6.4	nt
8	O=C(CN(C(=O)CNC(=O)c1ccco1)c1ccc2c(c1)OCCO2)NC1CCCCC1	nt	-0.9	-0.9	-1.3
9	O=C(NCCS(=O)(=O)N1CCCCCC1)c1ccccc1	nt	1.4	-10.1	2.5
10	NCCSC1CC(=O)N(c2ccc(F)cc2)C1=O (stereo not given)	nt	-3.2	nt	21.9
11	CCCCC12CN3CCN(CC(C3)/C1=N\NC(=O)Nc1ccccc1)C2	nt	-6.9	-3.1	nt
12	CCOC(=O)N1CCC(NC(=O)CSCc2nc(-c3cccc(OC)c3)oc2C)CC1	-6.5%&-5.5%	13.5	1.0	nt
13	O=C(Nc1ccc(N2CCN(C(=O)c3ccco3)CC2)cc1)c1cc(Br)ccc1Cl	nt	nt	13.7	4.1
14	Cc1cc(C)n(C(=O)CNc2ccc(C)c(C)c2)n1	9.8%	-9.3	-2.9	nt
15	O=C(O)Cn1c(=S)sc2ccccc21	-4.9%	1.8	0.2	-2.5

no.	LANA-H2B inh	T cruzi inh	A1 inh	RanGTP-Imp inh
1	1.9	-1.9	?	-0.6
2	35.1*	16.9	0.2	2.8
3	-4.2	nt	-0.9	nt
4	-5.1	19.9	1.5	-3.0
5	-0.5	-26.4	-0.1	1.7
6	2.7	4.6	-0.5	4.9
7	-7.2	-8.1	0.5	-4.3
8	-0.9	1.0	0.2	1.1
9	1.5	-7.4	-0.1	-0.4
10	-1.3	-12.8	0.3	7.7
11	-4.8	2.1	0.0	?
12	2.0	3.8	2.5	-0.5
13	-3.0	nt	1.2	nt
14	-0.1	-3.5	-1.0	6.3
15	-3.9	-9.3	-0.3	-2.3

# Sorted by length of the SMILES (highest first): part of the list above.
no.	SMILES	Vif A3G	Calb FLC	Beta cell apopt	MLL AF4-AF9 inh
1	Cc1cccc(CNC(=O)Cn2ccc3cc(S(=O)(=O)N4CCCCCC4)ccc32)c1	nt	-27.7	-1.3	0.9
10	NCCSC1CC(=O)N(c2ccc(F)cc2)C1=O (stereo not given)	nt	-3.2	nt	21.9
15	O=C(O)Cn1c(=S)sc2ccccc21	-4.9%	1.8	0.2	-2.5

no.	LANA-H2B inh	T cruzi inh	A1 inh	RanGTP-Imp inh
1	1.9	-1.9	?	-0.6
10	-1.3	-12.8	0.3	7.7
15	-3.9	-9.3	-0.3	-2.3

# Next entries follow.
no.	SMILES	Vif A3G	Calb FLC	Beta cell apopt	MLL AF4-AF9 inh
16	COc1ccc(-c2cn[nH]c2-c2ccc(OC)cc2O)cc1	-10.5%	8.4	-26.7	9.1
17	CCc1ccc(C(=O)NNC(=O)C2CSC3(C)CCC(=O)N23)cc1 (stereo not given)	-13.6%	-5.4	0.6	-1.7
18	O=C(NC1CCCCC1)NC1CCN(C(=S)NCc2ccco2)CC1	0.7%	-8.6	-3.1	nt
19	CC1CCC(NC(=O)COC(=O)c2ccco2)CC1 (stereo not given)	nt	nt	-1.3	-1.4
20	O=C(C1=NN[C@@H]2C(=O)N(c3ccccc3C(F)(F)F)C(=O)[C@H]12)c1ccc2ccccc2n1	?	3.0	-8.4	nt
21	O=c1cc(-c2ccccc2)nc2n1Cc1ccccc1-2	-2.2%	-1.3	-2.4	nt
22	Cn1c(=S)n(C)c2ccccc21	21.1%	-6.4	-6.2	-3.7
23	C=C(C)C1CC=C(C)/C(=N/NC(=O)C2CC2c2ccccc2)C1 (stereo not given)	1.1%	12.0	-2.1	-1.7
24	CCOC(=O)[C@H]1[C@H]2COc3cc(OC)ccc3[C@@H]2N2C(=O)c3cc(C)ccc3NC(=O)[C@@]12C	nt	nt	-6.1	2.0
25	Cc1cc(C)c2c(CN3CCN(C)CC3)cc(=O)oc2c1	-1.7%	-1.0	-2.5	nt
26	O=C(c1cccc([N+](=O)[O-])c1)N1CCN(c2cccc(Cl)c2)CC1	20.4%	21.0	0.6	nt
27	Cc1[nH]n(-c2ccccc2)c(=S)c1C=Nc1cccc([N+](=O)[O-])c1	7.2%	2.0	-7.2	nt
28	Cc1ccc(CNS(=O)(=O)/C=C/c2ccc3c(c2)OCO3)cc1	-5.4%	-39.4	-7.7	nt
29	COc1cccc(/C=C/C(=O)c2ccc(NC3=NCCCS3)cc2)c1	2.4%	-5.6	9.8	8.5
30	CCN(CC)C(=O)COc1ccc2c(c1)C(=O)CC(C)(C)O2	?	2.4	-8.9	7.3

no.	LANA-H2B inh	T cruzi inh	A1 inh	RanGTP-Imp inh
16	1.1	-5.4	-0.9	0.2
17	5.2	-17.1	0.1	0.1
18	-7.1	-6.5	0.0	2.5
19	5.6	nt	-0.6	nt
20	0.9	-18.9	0.6	0.5
21	-0.7	12.9	-0.2	-0.5
22	0.3	-12.3	-0.6	0.6
23	0.2	8.2	-0.6	0.4
24	-2.0	nt	-1.0	nt
25	0.1	48.7	2.1	2.8
26	-2.5	-3.6	0.2	-1.3
27	-4.8	-10.1	-1.0	-0.6
28	-0.8	-15.7	-1.2	-10.1
29	1.2	45.5	0.4	-3.4
30	2.3	-1.6	-0.2	-2.5

# (cont.)
no.	SMILES	Vif A3G	Calb FLC	Beta cell apopt	MLL AF4-AF9 inh
31	Cc1ccc(C(=O)CCC(=O)NNC(=O)c2ccccc2O)cc1	nt	nt	-0.6	-1.6
32	N#Cc1c(-n2cccc2C=O)sc2c1CCCC2	nt	-15.2	-7.0	-7.3
33	CC(OC(=O)c1ccc(NC(=O)CC#N)cc1)C(=O)NC(c1ccccc1)c1ccccc1 (stereo not given)	nt	nt	-1.6	-2.3
34	C=CCc1cccc(/C=N/NC(=O)C(C)Nc2cccc(C)c2)c1O (stereo not given)	-0.7%	8.2	22.2	-0.1
35	COc1ccc2c(c1)c(=O)oc1cc(OC(C(=O)O)c3ccccc3)ccc12 (stereo not given)	6.4%	-6.8	-2.5	-4.1
36	COc1ccccc1NC(=O)c1c(Br)cnn1C	-10.3%	2.6	-15.8	-0.6
37	COc1ccccc1NC(=O)C(C)N(C)Cc1ccc(Cl)s1 (stereo not given)	-5.0%	0.3	0.5	-2.2
38	O=C(CCc1nnc(CCc2c[nH]c3ccccc23)o1)NC1CCC1	-1.4%	-9.0	-8.1	-15.6
39	N/C(=N\OC(=O)Nc1ccc(Cl)cc1)c1ncc(C(F)(F)F)cc1Cl	22.8%	-1.1	-4.5	nt
40	COc1ccc(NC(=O)CN(C)CC(=O)Nc2ccc3c(c2)CCC3)cc1	nt	3.8	1.3	-0.8
41	CCCc1c(C)nc(N2CCN(c3ccc(F)cc3)CC2)[nH]c1=O	nt	0.9	1.1	-1.2
42	CCOC(=O)C1CCN(C(=O)Cc2c(C(=O)O)[nH]c3ccccc23)CC1	-7.5%	44.9	4.3	nt
43	O=C(CSc1ncnc2scc(-c3ccccc3)c12)NCc1ccc2c(c1)OCO2	-14.2%	-19.2	-11.1	2.8
44	Fc1ccccc1CNCCC(Cc1ccccc1)c1ccc2c(c1)OCO2 (stereo not given)	-1.7%	-67.1	-10.4	8.2
45	Cc1cc(C)cc(C(=O)NC(CC(N)=O)c2ccc(NC3CCCCCCCCCCC3)c([N+](=O)[O-])c2)c1 (stereo not given)	nt	-0.9	-1.8	-1.9

no.	LANA-H2B inh	T cruzi inh	A1 inh	RanGTP-Imp inh
31	11.6	nt	-1.3	nt
32	-5.8	-28.2	0.0	0.5
33	-1.4	nt	-0.4	nt
34	2.5	81.5*	0.3	2.9
35	-0.5	-10.3	0.1	1.3
36	2.8	-15.5	-0.2	-2.6
37	0.6	16.8	0.4	2.5
38	2.2	-2.0	-2.2	-0.4
39	-2.6	7.2	0.2	-1.2
40	3.2	-2.3	0.5	-15.6
41	-2.5	5.1	0.0	5.3
42	-1.2	-2.7	1.2	0.1
43	4.2	-7.3	0.1	1.6
44	20.7	12.4	0.2	3.5
45	-4.2	20.3	0.2	-3.7

# (list continues)
no.	SMILES	Vif A3G	Calb FLC	Beta cell apopt	MLL AF4-AF9 inh
46	Cc1noc(N)c1C(=O)Nc1ccc(C(C)(C)C)cc1	-0.7%	0.4	9.8	nt
47	CCOC(=O)Nc1ccc([N+](=O)[O-])cc1C	nt	7.6	nt	-1.6
48	CCOC(=O)C[C@H]1c2cc(F)ccc2S(=O)(=O)N1C1CCCCC1	nt	8.5	-3.6	nt
49	O=Cc1c(Sc2ccccc2)nc2ccccn2c1=O	8.3%	26.0	-49.5	nt
50	CCn1nnc(-c2ccccc2NC(=O)C(F)(F)F)n1	2.3%	-2.0	-5.5	-7.8
51	COc1ccc(C(C)=O)cc1COC(=O)c1ccc(S(=O)(=O)N2CCOCC2)cc1	0.8%	-2.2	-4.1	nt
52	O=C(CSc1nnnn1C1CCCCC1)NNC(=O)c1ccco1	8.7%	3.3	-11.9	0.0
53	CC1Cc2cc(S(=O)(=O)NCc3ccccc3)ccc2N1C(=O)C1CCC1 (stereo not given)	nt	0.4	6.6	0.0
54	O=C1c2ccccc2NC(c2ccc(-c3cccc(Cl)c3)o2)N1O (stereo not given)	0.7%	96.8*	14.3	14.7
55	CC(=O)c1ccc(-n2nnnc2SCC(=O)NC2CCCCC2)cc1	nt	-8.4	1.1	1.0
56	COCC(C)n1c(C)cc(C(=O)COC(=O)CCc2nc3ccccc3c(=O)[nH]2)c1C (stereo not given)	nt	-2.3	-3.2	3.7

no.	LANA-H2B inh	T cruzi inh	A1 inh	RanGTP-Imp inh
46	4.2	1.2	-12.7	0.0
47	-3.0	-13.2	0.2	3.0
48	2.0	-18.5	0.8	2.1
49	-6.1	8.8	-0.5	-0.2
50	-0.9	-18.0	-0.3	3.2
51	-2.5	-3.0	1.2	-1.9
52	1.4	-9.8	-0.4	-1.1
53	-0.9	-35.2	0.1	0.8
54	-1.8	3.1	-0.4	0.6
55	1.7	-3.1	-7.1	-1.6
56	1.6	-12.6	0.5	1.3

# Rows are unselected; overall some 4.3% were active at least once.
